# CtBP-E1A inh: inhibitors of CtBP/E1A interaction; AlphaScreen GST-E1A/His-CtBP binding, 1536-well; active compounds read low; control for the full effect not named in the record; activity change, % (test concentration not listed); actives 0.49% (n = 340,000); in the data active means activity change below about -65%; inconclusive means about -30% to -65%; inactive means above about -30%; further: on the % scale 0 is the no-effect control and ±100 the full control effect
#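 Protein mix (5X: 125 nM each GST-E1A, His-CtBP) was incubated with pinned compound 2 h at 37 deg C in dark, in 50 mM Tris pH 8.0 buffer with 300 mM NaCl. Glutathione donor and nickel acceptor beads followed; AlphaScreen signal read after 1 h.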
# PINK1 modulator: changes PINK1 expression. PINK1 immunofluorescence, high-content cytometry, 24 h. Potency, µM (top dose mostly 76.6 µM), for inactives: at the highest dose activation (PINK1 increase), most hits filed as activators. actives 0.2% (n = 410,000). AID 624263; active = well fitted activation curve with a large enough effect; inconclusive = small, poorly fitted or top-dose-only effect; inactive = flat fitted curve, though single readings scatter; cell line not stated here;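 further: potency means the concentration at half of the fitted maximal effect; % of control where 0% means no effect; nearly all actives have a fitted effect of over 65% in size; a mitochondrial uncoupler was the plate control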
#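 Stable cell line treated 24 h with compounds at 5 concentrations (CCCP controls), then fixed and immunostained for PINK1 plus nuclear and cell stains; PINK1 immunofluorescence quantified by laser-scanning microplate cytometry.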
# TRPML1 inh: human mucolipin-1 channel inhibition; Q9GZU1; TRPML1-inducible cells, Ca2+ dye fluorescence, FDSS; active compounds read low; inhibition of EC80 agonist-evoked calcium signal; activity change, negative = inhibition, % (concentration not given with the values); actives 0.02% (n = 390,000); AID 624415; in the data active means activity change below about -50%; inconclusive means about -30% to -50%; inactive means above about -30%;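 further: stimulus is agonist 54-4 at its EC80 concentration; on the % scale 0 is the no-effect control and ±100 the full control effect; the text of the record puts the active cut at -80%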
#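 Tet-induced TRPML1-DL cells loaded with Ca8 no-wash calcium dye were read kinetically on FDSS. Compound addition was followed by EC80 agonist 54-4 (4 uM final); inhibition was read over 110 s.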
# Six1-Eya2 blk: inhibitors of human Six1/Eya2 interaction | Q15475+O00167 | AlphaScreen GST-Six1/His-Eya2 binding, biochemical; active compounds read low; control for the full effect not named in the record | activity change, % (concentration not given with the values) | actives 0.56% (n = 360,000) | AID 651725; in the data active = activity change below about -65%; inconclusive = about -30% to -65%; inactive = above about -30%; further: on the % scale 0 is the no-effect control and ±100 the full control effect
# Target sequence (O00167 whole entry, looked up): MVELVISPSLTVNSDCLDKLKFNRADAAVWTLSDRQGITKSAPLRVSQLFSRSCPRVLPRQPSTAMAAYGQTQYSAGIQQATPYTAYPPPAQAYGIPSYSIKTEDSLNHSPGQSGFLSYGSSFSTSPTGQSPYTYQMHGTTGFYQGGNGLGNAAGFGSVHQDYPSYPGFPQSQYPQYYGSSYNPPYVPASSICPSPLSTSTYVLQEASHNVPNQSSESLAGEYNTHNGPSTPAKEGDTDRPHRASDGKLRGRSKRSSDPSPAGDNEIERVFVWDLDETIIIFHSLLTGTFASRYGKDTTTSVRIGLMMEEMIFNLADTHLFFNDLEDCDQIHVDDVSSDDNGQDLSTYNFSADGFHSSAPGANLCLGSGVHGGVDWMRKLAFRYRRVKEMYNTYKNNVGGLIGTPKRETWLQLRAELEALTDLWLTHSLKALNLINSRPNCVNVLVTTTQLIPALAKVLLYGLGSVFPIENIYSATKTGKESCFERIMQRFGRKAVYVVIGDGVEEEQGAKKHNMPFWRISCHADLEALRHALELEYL
# Target sequence (Q15475 whole entry, looked up): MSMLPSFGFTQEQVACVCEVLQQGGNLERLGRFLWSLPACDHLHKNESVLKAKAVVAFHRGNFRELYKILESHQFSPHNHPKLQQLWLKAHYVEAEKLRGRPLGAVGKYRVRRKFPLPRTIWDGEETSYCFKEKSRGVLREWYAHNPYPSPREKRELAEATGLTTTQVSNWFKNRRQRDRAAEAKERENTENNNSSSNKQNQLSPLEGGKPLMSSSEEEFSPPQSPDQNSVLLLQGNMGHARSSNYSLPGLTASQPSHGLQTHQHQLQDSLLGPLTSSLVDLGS
#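 Homogeneous AlphaScreen proximity assay pairing GST-Six1 with His-tagged Eya2 (added as 5X mix: 250 nM and 500 nM) in 50 mM Tris pH 8.0, 300 mM NaCl, 1 mM TCEP. Glutathione donor and nickel acceptor beads; 1 h, 37 °C, dark.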
# D2 agonist: activates the human D2 dopamine receptor | AID 624465 | actives 0.084% (n = 360,000) | DiscoveRx PathHunter D2 beta-arrestin, luminescence, 90 min; 100% = 57 uM dopamine signal | activation, % (concentration not given with the values) | P14416; in the data active = activation above about 40%; inconclusive = about 15% to 40%; inactive = below about 15%; further: compound concentration not given in the record; the text of the record calls up to 30% inactive
#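 Agonist mode: compounds alone added to overnight-plated D2 PathHunter cells for 90 min at 37 C, with 57 uM final dopamine (EC100) defining full response. Beta-arrestin recruitment detected by chemiluminescent reagent, read after 1 h at ambient temperature.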
# TRPML1 ag: activates the human TRPML1 channel; actives 0.12% (n = 410,000); AID 624414; activation, % (no concentration beside the values); TRPML1-expressing cells, Ca2+ dye fluorescence, FDSS; host cell line not named in the record; reference of the full effect not given here; in the data active = activation above about 50%; inconclusive = about 30% to 50%; inactive = below about 30%; further: 0% is about no effect; the text of the record puts the active cut at 80%
#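 Kinetic FDSS Ca2+ read in Tet-induced TRPML1-DL cells (ABD Ca8 dye plus quencher, 45-90 min RT loading): baseline, then compound, then 110 s agonist window; EC80 agonist 54-4 at 4uM final added afterwards for a 110 s antagonist window.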
# Numbers without * were called inactive; u = inconclusive; x = not tested or not shown; & = joins results of further samples; [ ] = remark or other dose.
SMILES,CtBP-E1A inh,PINK1 modulator,TRPML1 inh,Six1-Eya2 blk,D2 agonist,TRPML1 ag
COC(=O)CCc1c(C)c(C(=O)c2ccc(F)cc2)c2ccccn12,-3,1.6%,-7,-1,-11,0.4
CCCCNC(=O)NC1(C(F)(F)F)Oc2ccccc2O1,-6,2.1%,23,11,2.3,-0.1
Cc1cnc(NC(=O)C2COc3ccccc3O2)s1 (configuration not stated),-5,1.3%,1,1,-4.4,0.2
Cc1csc(Nc2ccccc2)[n+]1C,0,-1.1%,3,4,-3.7,-0.4
CCN(CC)C(=O)c1cccc(NC(=O)CC23CC4CC(CC(C4)C2)C3)c1,-2,0.5%,4,-10,-2.8,0.0
COc1ccc2c(c1)cc(C(=O)N[C@@H](CCSC)C(=O)N1CCC(C(=O)O)CC1)n2C,0,0.0%,1,-5,4.5,1.4
O=C(NCCN1C(=O)S/C(=C\c2cccnc2)C1=O)c1ccc([N+](=O)[O-])s1,-8,-0.3%,-5,8,2.5,-0.4
Cc1ccc(S(=O)(=O)Nc2cccc(C(=O)N3CCOCC3)c2)c(C)c1NS(C)(=O)=O,4,1.1%,22,0,-2.0,-0.6
N#CC1=C(SCc2ccccc2)NC(=O)CC1c1ccc(O)cc1 (configuration not stated),3,1.8%[38.3 µM],3,0,1.8,-0.2
N#Cc1nc(-c2ccc(COc3ccccc3)o2)oc1N1CCCCC1,x,-0.1%,15,x,x,2.0
CC(C)CC1Nc2ncnc(N3CCOCC3)c2N(Cc2ccc(Br)cc2)C1=O (configuration not stated),-1,-0.5%,-7,-3,-0.6,0.0
COc1cccc(CC(NC(C)=O)C(=O)NC2CCN(C(=O)NCc3ccccc3)CC2)c1 (configuration not stated),3,2.3%,3,-4,-3.0,0.5
COc1ccc(Nc2nc(-c3ccc(OC)cc3)c(CCC(=O)O)s2)cc1,-3,-0.9%,-2,-6,-1.7,1.5
COc1ccc(N2CCOCC2)c(NC(=O)c2ccc(Br)o2)c1,-1,-3.6%,-26,-10,-4.1,1.6
Cc1ccccc1NC(=O)Cc1nc(-c2ccc3ccccc3c2)cs1,5,15%,85,1,0.2,3.1
O=C1c2cccc([N+](=O)[O-])c2C(=O)N1c1ccccc1,6,-0.4%,-1,1,-0.5,0.9
CC1CC(C)CN(CCCNS(=O)(=O)c2ccc3c(c2)CCN3C(=O)C2CC2)C1 (configuration not stated),0,-0.3%,0,-1,-0.4,-0.8
CCOc1ccc(NC(=O)CN(C)C(=O)CN2C(=O)c3ccc([N+](=O)[O-])cc3C2=O)cc1OCC,1,2.2%,3,u,6.1,-0.6
O=C(Nc1cc(Br)ccc1O)c1cc(-c2ccco2)on1,0,11%,-5,0,12,-0.6
COc1ccc(-c2nc(C#N)c(NCCc3ccccc3)o2)cc1OC,14,u,12,7,-1.5,0.9
Cc1c2cnn(CC(=O)NCCc3ccccc3)c(=O)c2c(C)n1Cc1ccccc1,x,0.2%,27,x,x,-0.4
COc1cccc2c1Oc1ncccc1N(C(=O)CCC(=O)NCc1ccc(N(C)C)cc1)C2,x,1.6%,-3,x,x,0.1
CCOc1ccccc1C(=O)N1CCCCC1CCN1CCOCC1 (configuration not stated),x,0.7%,3,x,x,-0.2
Cc1ccc(C=Nc2cc([N+](=O)[O-])ccc2C)s1,2,3.8%,10,1,-1.4,-0.1
COc1ccccc1C(=O)Nc1ccnn1C1CCN(C(=O)C(C)(C)C)CC1,x,2.4%,4,-1,-3.9,-0.6
COc1ccc(-c2cnc3c(NC=O)cc(-c4cc(OC)c(OC)c(OC)c4)cn23)cc1OC,-13,5.3%,x,-16,u,-1.4
Cn1c(=N)c(S(=O)(=O)c2ccccc2)cc2c(=O)n3ccccc3nc21,-70*,9.1%,29,u,-3.0,-0.6
CCCCn1c(N)c(N(CC(C)C)C(=O)CCCSc2nncs2)c(=O)[nH]c1=O,7,-0.8%,3,4,1.3,0.2
CCCCn1nc(CC(=O)NCCN(CC)CC)c2ccccc2c1=O,1,-0.2%,4,6,0.0,0.2
Cc1noc(C)c1CSCC(=O)OCC(=O)Nc1ccc(OC(F)(F)F)cc1,6,1.6%,-16,4,0.4,-1.3
O=[N+]([O-])c1cc(-c2nc(-c3ccccn3)no2)ccc1NCc1ccccc1,x,3.4%,17,x,x,0.6
Cc1cc(OCC(=O)NC(C)C)cc(C)c1Cl,3,-1.5%,4,2,-2.2,0.7
CCOC(=O)c1cnc(SC)nc1Oc1cccc(NC(=O)c2cccc(Cl)c2Cl)c1,2,-0.5%,24,20,0.0,0.7
Cc1cc2cc(C)c3nnc(SCC(=O)Nc4ccc(S(=O)(=O)N5CCCCC5C)cc4)n3c2cc1C (configuration not stated),-7,-0.2%,4,-4,-0.1,-0.3
CCCN(C(=O)COC(=O)CNC(=O)c1ccc2ccccc2c1)c1c(N)n(Cc2ccccc2)c(=O)[nH]c1=O,-6,-0.4%,-24,3,-4.3,-0.4
CC(C)[N+](C)(C)CC#CC(O)(c1ccccc1)c1ccccc1,6,1.1%,41,11,-4.1,-0.7
CC(C)(C)[C@H]1C=C(C(=O)O)O[C@@H](OCCCCO)C1,0,1.5%,-18,2,-4.8,0.1
COc1cc2nc(CN(C)Cc3ccc(Cl)cc3)[nH]c(=O)c2cc1OC,-9,5.5%,3,9,-1.0,-0.3
COc1cc(OC)c2cc(C(=O)N/N=C/c3ccccc3O)[nH]c2c1,x,1.0%,-9,-18,-2.4,-0.1
CC(C)Oc1cc(F)ccc1-c1cc(C(=O)Nc2ccc(C(C)C)cc2)[nH]n1,6,-0.8%,x,0,-3.3,-0.3
CN(C)c1nc(Oc2ccc(=O)n(C)n2)nc(N2CCOCC2)n1,4,-1.8%[38.3 µM],30,7,-2.7,-0.4
COC(=O)C[C@H]1c2cc(C(F)(F)F)ccc2S(=O)(=O)N1c1ccc(N(C)C)cc1,-11,0.6%,10,-9,-2.1,0.4&-0.9
CCSC1=NCCN1C(=O)c1c(-c2ccccc2Cl)noc1C,-3,1.7%,12,-5,1.2,0.9
C=CCN(C(=O)c1csnn1)C(C(=O)NCc1ccccc1)c1c(F)cccc1Cl (configuration not stated),1,-1.9%,9,1,-0.1,0.2
COc1ccc(Cn2c(CCC(=O)O)nc3cccnc32)cc1,2,4.6%[38.3 µM],-10,0,0.2,0.1
CC(Sc1ccc(Cl)cc1)C(=O)NCC(c1ccco1)N1CCCCC1 (configuration not stated),-20,-1.6%,1,-6,-4.3,0.1
Cn1c(=O)c(C(=O)CN2CCCCCC2)c(N)n(Cc2ccccc2)c1=O,0,-0.7%,-11,-6,-1.0,-0.6
COc1cccc(C=NNC(=O)CCCC(=O)NN=Cc2cccc(OC)c2)c1,-2,-1.5%,14,0,1.6,1.8

# Compound profiles (already shown). Order of values: CtBP-E1A inh	PINK1 modulator	TRPML1 inh	Six1-Eya2 blk	D2 agonist	TRPML1 ag
# CC(Sc1ccc(Cl)cc1)C(=O)NCC(c1ccco1)N1CCCCC1 (configuration not stated) reads -20	-1.6%	1	-6	-4.3	0.1
# CN(C)c1nc(Oc2ccc(=O)n(C)n2)nc(N2CCOCC2)n1 reads 4	-1.8%[38.3 µM]	30	7	-2.7	-0.4
# Cn1c(=O)c(C(=O)CN2CCCCCC2)c(N)n(Cc2ccccc2)c1=O reads 0	-0.7%	-11	-6	-1.0	-0.6
# COc1cc2nc(CN(C)Cc3ccc(Cl)cc3)[nH]c(=O)c2cc1OC reads -9	5.5%	3	9	-1.0	-0.3

# Additional structures.
SMILES,CtBP-E1A inh,PINK1 modulator,TRPML1 inh,Six1-Eya2 blk,D2 agonist,TRPML1 ag
O=C(CN(Cc1ccccc1)C(=O)c1csnn1)NCCc1ccccc1,3,0.0%,25,-9,-2.2,-0.6
O=C(Cc1ccccc1)Nc1ccccc1N1CCCC1,0,-0.4%,-5,-5,-1.9,-0.3
COc1ccccc1-c1oc2ccccc2c1C#CCCO,x,5.1%,-4,-5,-0.3,-0.1
CN(C)c1ccc(NC(=O)CN2CCC(C(=O)c3ccc(F)cc3)CC2)cc1,-15,0.1%[38.3 µM],0,-17,0.2,3.2
CC(OC(=O)c1cccnc1)C(=O)NCc1ccc2c(c1)OCO2 (configuration not stated),5,1.2%,-15,4,1.0,-0.6
CCN(CC(=O)Nc1c(F)cccc1F)C(=O)C1CCCO1 (configuration not stated),5,0.4%,-5,0,-0.7,-0.6
CCn1c(N2CCC(Cc3ccccc3)CC2)nc2c1c(=O)[nH]c(=O)n2C,-8,-2.6%,0,-16,0.1,0.2
COC(=O)NCCOc1cc(C)ccc1C,7,3.3%[38.3 µM],1,4,0.9,1.5
COc1ccc(NC(=O)N(C)C[C@H]2Oc3ccc(NC(=O)Nc4ccc5c(c4)OCO5)cc3C(=O)N([C@H](C)CO)C[C@@H]2C)cc1,-5,-1.1%,-3,-12,1.0,-0.8
CC1(C)OC(=O)C=C[C@]2(C)[C@H]3CC[C@@]4(C)[C@H](C(=O)O)OC(=O)[C@H]5O[C@]54[C@]3(C)C(=O)C[C@@H]12,4,0.0%,-3,10,-1.8,-0.5
CCc1ccc(-n2c(SCC(=O)Nc3cc(C)[nH]n3)nc3[nH]ncc3c2=O)cc1,-6,0.1%,-10,-8,1.0,0.6
O=C(Cn1c(=O)c2cc(Cl)ccc2n2nncc12)Nc1ccccc1,x,0.9%,5,x,x,-1.1
CCc1ccc2c(COC(=O)C3CSC4(C)CCC(=O)N34)cc(=O)oc2c1 (configuration not stated),x,1.9%,-12,0,0.0,-2.0
O=C(CN1C(=O)NC2(CCCC2)C1=O)Nc1ccccc1C(F)(F)F,6,-1.3%,11,-8,-2.2,-0.2
C=CCn1c(COc2cccc3ccc(C)nc23)nnc1SCC(=O)O,-8,-1.7%,-13,2,-0.1,1.4
Cc1[nH]n(-c2ccccc2)c(=O)c1C(C[N+](=O)[O-])c1ccccc1Cl (configuration not stated),-1,1.5%,-2,6,-3.8,0.9
Oc1ccccc1C1=Nc2ncnn2C(c2ccc(F)cc2)C1 (configuration not stated),-2,8.9%,1,4,-5.3,0.6
CC1(C(=O)NS(=O)(=O)c2cccc(Cl)c2)CCN1C(=O)C1(c2ccc(Cl)cc2)CC1 (configuration not stated),-2,-0.5%,x,-12,4.2,-0.6
Cc1cccc(N=Nc2cnc(N)s2)c1,-6,-0.3%,20,-4,-2.9,3.2

# Reformatted with bars between the fields: 4 of the compounds above
Structure | CtBP-E1A inh | PINK1 modulator | TRPML1 inh | Six1-Eya2 blk | D2 agonist | TRPML1 ag
CC1(C)OC(=O)C=C[C@]2(C)[C@H]3CC[C@@]4(C)[C@H](C(=O)O)OC(=O)[C@H]5O[C@]54[C@]3(C)C(=O)C[C@@H]12 | 4 | 0.0% | -3 | 10 | -1.8 | -0.5
CCN(CC(=O)Nc1c(F)cccc1F)C(=O)C1CCCO1 (configuration not stated) | 5 | 0.4% | -5 | 0 | -0.7 | -0.6
CC1CC(C)CN(CCCNS(=O)(=O)c2ccc3c(c2)CCN3C(=O)C2CC2)C1 (configuration not stated) | 0 | -0.3% | 0 | -1 | -0.4 | -0.8
Oc1ccccc1C1=Nc2ncnn2C(c2ccc(F)cc2)C1 (configuration not stated) | -2 | 8.9% | 1 | 4 | -5.3 | 0.6

# Screens (PubChem)

# An unsorted share of the library; overall some 1% were active at least once.
